# Compound activity from PubChem.
# StopGo reporter: High Throughput Screening for Foot and Mouth Disease Virus Antivirals | actives 1.2% (n = 410,000) | Potency, µM (highest dose often 57.9 µM), for the others: top-dose signal change, negative = less light | human cells with a luciferase reporter of 2A StopGo recoding; control for the full effect not named in the record | AID 1159524, 2015; active = well fitted falling curve with a large enough effect; inconclusive = small, poorly fitted or top-dose-only effect; inactive = no such curve, though single readings can be large or run the other way; tested in HEK293T cells; also: % is scaled to controls: 0 for no effect and ±100 for the full control effect; nearly all actives have a fitted effect of over 45% in size; luciferase light after 4 h
# Cruzain noTriton: qHTS Assay for Promiscuous and Specific Inhibitors of Cruzain (without detergent) | purified cruzain, Z-FR-AMC fluorescence, no detergent | AID 1476, 2009 | Potency, µM, inactives show max response, negative = inhibition, actives largely listed as inhibitors | actives 2.3% (n = 200,000);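 also: plate controls were enzyme without inhibitor for no effect and buffer without enzyme for full effect; nearly all actives have a fitted effect of over 40% in size; top concentration of the series not given in the record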
# Target sequence (P25779 123-467 limits assumed): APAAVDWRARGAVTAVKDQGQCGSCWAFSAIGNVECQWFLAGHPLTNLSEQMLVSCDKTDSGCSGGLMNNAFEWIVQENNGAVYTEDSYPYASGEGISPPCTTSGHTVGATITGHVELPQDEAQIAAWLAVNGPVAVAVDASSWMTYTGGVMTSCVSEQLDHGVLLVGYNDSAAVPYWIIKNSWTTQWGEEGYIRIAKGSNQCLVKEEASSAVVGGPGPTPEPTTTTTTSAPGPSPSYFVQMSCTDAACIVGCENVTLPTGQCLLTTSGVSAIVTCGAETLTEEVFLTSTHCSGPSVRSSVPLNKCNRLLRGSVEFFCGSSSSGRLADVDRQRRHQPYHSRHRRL
#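 Detergent-free condition (0.00005% Triton X-100) in acetate buffer pH 5.5 with DTT. 1.5 nM enzyme and compound were pre-mixed 15 min, then 2 uM Z-FR-AMC substrate added; reaction progress from fluorescence change between first and third reads (60 s).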
# MARV entry inh: qHTS for inhibitors of binding or entry into cells for Marburg Virus; Marburg virus pseudotyped entry inhibition, cell reporter; control for the full effect not named in the record; about a third of the inactives were read at about 46 µM; Potency, µM (doses to about 37.8 µM), inactives show at the top dose activity change, negative = inhibition, actives largely listed as inhibitors; actives 1.8% (n = 300,000); active = well fitted inhibition curve with a large enough effect; inconclusive = small, poorly fitted or top-dose-only effect, or effect the other way; inactive = flat fitted curve, though single readings scatter; tested in HEK293 cells; about a fifth of its hits are not listed in these tables; also: % is scaled to controls: 0 for no effect and ±100 for the full control effect; luciferase read-out
# SARS PLP yeast: qHTS of Yeast-based Assay for SARS-CoV PLP. S. cerevisiae expressing SARS-CoV PLpro, growth rescue; control for the full effect not named in the record. Potency, µM (series often up to 32.9 µM), for inactives: at the top dose activity, positive = growth rescue. actives 0.19% (n = 330,000). AID 485353, 2010; active means well fitted rising curve with a large enough effect; inconclusive means small, poorly fitted or top-dose-only effect; inactive means no such curve, though single readings can be large or run the other way; also: 0% is about no effect; nearly all actives have a fitted effect of over 55% in size; growth read by luminescence after 48 h
# Cruzain Triton: qHTS Assay for Promiscuous and Specific Inhibitors of Cruzain (with detergent) | Potency, µM, for inactives: max response, negative = inhibition, actives largely listed as inhibitors | Cruzipain (Trypanosoma cruzi), P25779 | actives 0.43% (n = 200,000) | AID 1478, 2009 | purified cruzain, Z-FR-AMC fluorescence, 0.01% Triton;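 also: plate controls were neutral wells for no effect and buffer without enzyme for full effect; nearly all actives have a fitted effect of over 40% in size; top concentration of the series not given in the record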
#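 Enzyme 1.5 nM, Z-FR-AMC 2 uM, NaOAc 100 mM pH 5.5, DTT 5 mM, Triton X-100 0.01%; 15 min RT compound preincubation; kinetic ex360/em450, 60 s delta.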
# RE007 growth inh: qHTS Assay for Inhibitors of the HIV-1 protein Vpr | S. pombe RE007 Vpr strain, BacTiter-Glo ATP luminescence, 24 h; control for the full effect not named in the record | Potency, µM (doses to about 92.2 µM), inactives show at the highest dose activity change, negative = less growth | actives 0.21% (n = 360,000); active = well fitted falling curve with a large enough effect; inconclusive = small, poorly fitted or top-dose-only effect; inactive = no such curve, though single readings can be large or run the other way;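 also: % is scaled to controls: 0 for no effect and ±100 for the full control effect; nearly all actives have a fitted effect of over 50% in size; the assay follows cell death caused by Vpr and the record does not say whether a fall means rescue or toxicity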
#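 Fission yeast strain RE007, carrying one chromosomally integrated HIV-1 vpr copy, was seeded at OD 0.01 in PMG+AL medium with 23 nL pinned compound. After 24 h at 30 °C and 99% humidity, viability was read by BacTiter-Glo luminescence.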
# Lassa entry inh: qHTS for Inhibitors of binding or entry into cells for Lassa Virus; Lassa virus pseudotype entry inhibition, cell reporter; control for the full effect not named in the record; actives 1.2% (n = 300,000); Potency, µM (doses to about 37.9 µM), for the others: at the highest dose activity change, negative = inhibition, most hits filed as inhibitors; AID 540256, 2011; active means well fitted inhibition curve with a large enough effect; inconclusive means small, poorly fitted or top-dose-only effect, or effect the other way; inactive means flat fitted curve, though single readings scatter; tested in HEK293 cells; also: % is scaled to controls: 0 for no effect and ±100 for the full control effect; nearly all actives have a fitted effect of over 50% in size; luciferase read-out
# NS1 function inh: qHTS Assay for Inhibitors of Influenza NS1 Protein Function | S. cerevisiae slowed by influenza A NS1, growth recovery by OD600 | actives 0.4% (n = 270,000) | AID 2326, 2010 | Potency, µM (top dose mostly 46.1 µM), for the others: at the top dose activity, positive = more growth; active means well fitted rising curve with a large enough effect; inconclusive means small, poorly fitted or top-dose-only effect; inactive means no such curve, though single readings can be large or run the other way; also: nearly all actives have a fitted effect of over 50% in size
#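 Growth recovery, yeast-based: influenza A NS1 expressed in S. cerevisiae causes slow growth, and suppressors are detected by OD600. The parent strain without NS1 is used as positive control.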
# Starred values were filed as active, the others as inactive; u = inconclusive; x = no result given; [ ] = dose if it differs, or a comment. Unless noted, calls follow the shape of the dose curve; as a rule, active = well fitted curve in the direction sought with a large enough effect; inconclusive = small, poorly fitted or top-dose-only effect, or another doubt; inactive = no such curve, though single readings can be large; an effect the other way counts as inactive or inconclusive. Potency is read from the fitted curve at half-maximal effect.
mol	Cruzain Triton	StopGo reporter	Cruzain noTriton	RE007 growth inh	MARV entry inh	SARS PLP yeast	Lassa entry inh	NS1 function inh
COc1cc2cc(CN(CCN3CCCC3)C(=O)Nc3ccc(F)cc3)c(=O)[nH]c2cc1OC	-2.4%	-21%	-8%	11%	u	1%	4%	15%
Oc1ccc(-c2onc3ccc(Cl)cc23)cc1	-4.1%	28%	-23%	2%	-11%	-26%	14%	-55%
COc1cc(OC)cc(C(=O)NCCSc2c[nH]c3ccccc23)c1	x	-16%	x	-12%	u	2%	-27%[46.1 µM]	-48%
CCOC(=O)c1c(C)[nH]c(C(=O)COC(=O)CNS(=O)(=O)c2ccc(C)cc2)c1C	x	-7%	x	-7%	9%	5%	-4%	x
CC(=O)c1c(C)[nH]c(C(=O)OCC(=O)Nc2ncc(Cl)c(C)c2Cl)c1C	-5.2%	-26%	-5%	2%	7%	5%	1%	9%
Cc1ccc(Cn2nnc3c(=O)n(CC(=O)N4CCN(c5ccccc5)CC4)cnc32)cc1	8.5%	x	6%	1%	-1%	-3%	-2%	-31%
CSCC[C@H](NC(=O)[C@@H]1Cc2ccccc2CN1)C(=O)Nc1cccc(C)c1	x	0%	x	3%	x	-3%	x	-16%
Cc1ccnc(NS(=O)(=O)c2cc(-c3cc(C)no3)ccc2C)c1	2.6%	87%[activator]	19%	x	x	x	4%[46.1 µM]	x
COc1ccc(O)c(/C=C(\C#N)C(=O)Nc2ccccn2)c1	x	50%[activator]	x	2%	x	1%	x	-5%
CCN(CC)S(=O)(=O)c1ccc(N2CCOCC2)c(NC(=O)CCC2CCCCC2)c1	-14%	-14%	u	-9%	-28%	-18%	-30%	14%
Cc1cc(C)n(CCCO)c(=O)c1C#N	4.5%	-2%	0%	8%	19%	-1%	-1%	-6%
CN(C)CCNc1cnn(-c2ccccc2)c(=O)c1Cl	x	16%	x	-8%	x	1%	x	-1%
CO/N=C/c1ccc(OC)c(Oc2nc(OC)cc(OC)n2)c1	x	-13%	x	-18%	u	2%	u	x
COc1cc(C2C(C#N)=C(N)OC3=C2C(=O)CCC3)cc(OC)c1OC(=O)N1CCOCC1 (stereo not given)	-6.1%	-9%	-2%	0%	-2%	16%	-3%	2%
CSc1ncc(C(=O)NCCCc2ccccc2)c(C)n1	x	-1%	x	7%	x	-2%	x	4%
CCOc1ccccc1NC(=O)Cn1cc(C(=O)c2cccc(OC)c2)c(=O)c2ccc(C)nc21	0.3%	u	-8%	x	x	x	-23%[46.1 µM]	x
c1ccc(-c2nnc3sc(-c4cc5ccccc5o4)nn23)cc1	-1.4%	20%	-11%	-1%	-14%	-15%	-4%	5%
CN1CCN(c2ccc(NC(=O)c3ccccc3)cc2)CC1	x	18%	x	8%	u	1%	13%[46.1 µM]	4%
Cc1ccc(Nc2nc(C)c(NC(=O)c3ccc(C)cc3)c(Nc3ccc(C)cc3)n2)cc1	-0.6%	-26%	-9%	x	u	x	-21%[46.1 µM]	x
O=C(NCc1ccccn1)C1CCN(S(=O)(=O)c2cnc[nH]2)CC1	3.7%	-3%	-5%	4%	6%	2%	5%	10%
Cc1ccc(S(=O)Cc2ccc(C(=O)NC3CCCCCC3)o2)cc1 (stereo not given)	4.8%	-16%	4%	x	u	x	u	x
COc1ccc(N(C)S(=O)(=O)c2cccc(C(=O)NC3CCCCC3C)c2)cc1 (stereo not given)	x	-13%	x	-9%	u	-2%	x	x
COC(=O)C1=C(N)Oc2cc(C)n(CCCn3ccnc3)c(=O)c2C1c1cccc(Cl)c1 (stereo not given)	1.1%	4%	2%	-9%	-11%	4%	-9%	-12%
CC1CC1C(=O)N(C)CC(=O)Nc1cccc(F)c1 (stereo not given)	x	0%	x	-20%	-1%	2%	-15%	x
CC(C)C(=O)NC(CC(=O)O)c1ccccc1 (stereo not given)	x	-2%	x	-3%	13%[46.1 µM]	0%	0%	3%
CCOc1ccc(Nc2oc(-c3ccc(COc4ccc(C)cc4)o3)nc2C#N)cc1	-4.3%	20%	3.2µM*	x	-22%[46.1 µM]	x	-9%[46.1 µM]	x
CC(C)CCNC(=O)C1(O)c2ccccc2NC(=O)N1c1ccc(Cl)cc1 (stereo not given)	x	2%	x	-14%	-4%[46.1 µM]	-1%	-5%[46.1 µM]	-8%
CC(C)c1nc2cc(C(=O)N(C)Cc3ccc(F)cc3)ccc2o1	x	31%[activator]	x	7%	3%	-1%	u	-20%
COc1ccccc1-n1c(SCC(=O)Nc2ccc(NC(C)=O)cc2)nc2c([nH]c3ccccc32)c1=O	x	-7%	x	24%	-16%	7%	-19%	u
CC(C)Oc1ccc(C(CC(=O)O)NC(=O)C(Sc2ccccc2)c2ccccc2)cc1 (stereo not given)	x	-14%	x	-9%	-14%[46.1 µM]	2%	6%	x
COc1ccc(/C=N/n2cncn2)cc1Cn1cc([N+](=O)[O-])cn1	x	9%	x	17%	x	-1%	x	4%
O=C(O)C1SCCN1S(=O)(=O)c1ccc(N=NN2CCOCC2)cc1 (stereo not given)	x	10%	x	2%	-5%[14.2 µM]	0%	16%	-2%
Cc1ccc(NS(=O)(=O)c2ccc3c(c2)oc(=O)n3C)c(C)c1	x	9%	x	69%	-1%[46.1 µM]	2%	-6%[46.1 µM]	18%
COc1ccc(NC(=O)C2CCCN(S(=O)(=O)c3cccc4nonc34)C2)cc1OC (stereo not given)	x	2%	x	9%	-11%	-3%	-20%	x
O=C(CN(C(=O)CCC(=O)Nc1nccs1)c1ccc(F)cc1)NCc1ccc2c(c1)OCO2	x	6%	x	3%	u	1%	-18%[46.1 µM]	-3%
COc1cccc2cc(S(=O)(=O)c3ccccc3)c(=Nc3ccc4c(c3)OCCO4)oc12	-0.9%	-11%	u	-4%	1%	-4%	11%	5%
O=C(Nc1ccc2c(c1)OCCO2)C1CCCN1S(=O)(=O)c1ccc(Cl)cc1 (stereo not given)	3.1%	-2%	0%	5%	22%	4%	2%	-15%
O=c1cc(C(F)(F)F)nc(-c2cccnc2)[nH]1	x	1%	x	-15%	u	1%	1%	9%
COc1cccc2cc(-c3ccccc3)c(=O)oc12	x	42%[activator]	x	u	u	-7%	8%[46.1 µM]	-26%
CCOC(=O)C1(c2ccccc2)CCN(CCC(=O)Nc2cccc(Br)c2)CC1	x	-33%	x	9%	2.8µM*	0%	13µM*	x
Cc1ccc(CSCC(=O)NCc2cccnc2)cc1	-1.3%	-20%	-13%	2%	8%	7%	6%	3%
NC(=O)CSc1nnc(-c2ccncc2)n1CCc1ccccc1	2.0%	14%	-5%	15%	8%[46.1 µM]	-2%	0%	0%
COc1cc(N=C(N)N=C(N)N)cc(OC)c1	x	-3%	x	-22%	1%	0%	2%	10%
Cc1ccc(C(=O)O/N=C2/CC3CCC2(C)[C@@]3(C)CBr)cc1 (stereo not given in full)	x	-21%	x	-7%	u	-5%	-20%	-92%
Cc1cc(C(=O)NC2CCCc3c2cnn3-c2ccc(C)c(C)c2)nc(C)n1 (stereo not given)	x	-12%	x	-1%	u	-5%	-19%[46.1 µM]	-64%
COc1ccc(OC)c(S(=O)(=O)Nc2ccc(Oc3ccccc3)cc2)c1	-8.8%	10%	10%	20%	-23%	5%	-2%	-8%
NS(=O)(=O)c1ccc(NC(=O)C(=O)NCCC(=O)O)cc1	x	-3%	x	5%	2%	0%	6%	-3%
COc1cc(CN2CCCC(C(=O)c3sccc3C)C2)cc(Cl)c1O (stereo not given)	x	-29%	x	2%	-15%[46.1 µM]	2%	x	-6%
Cn1nc(-c2ccccc2)c(CSc2ccccc2)c1Cl	2.6%	-24%	5%	-15%	u	-26%	-18%	-6%
O=C(CSc1n[nH]c(-c2ccncc2)n1)Nc1ccc(Cl)cc1	x	-8%	x	-16%	-6%[46.1 µM]	-2%	17%[46.1 µM]	-7%
Cc1ccc(NC(=O)CCNS(=O)(=O)c2ccc3c(c2)CCC(=O)N3)cc1C	x	0%	x	11%	x	u	x	5%
COc1ccc(C(=O)CSc2nnc(CCc3ccccc3)n2-c2ccccc2)cc1	-2.4%	20%	u	-10%	-26%	-2%	-32%[14.3 µM]	0%
Cc1ccc2cc(C#N)c(NCCNC(=S)NCCCN(C)C)nc2c1C	x	-22%	x	6%	x	0%	x	2%
OCCNCCSc1ccc(Cl)cc1	x	6%	x	-6%	x	0%	x	6%
CCCCN(CC)C(=O)Cc1cn(C)c2ccccc12	3.3%	-10%	6%	-7%	u	1%	16%	-10%
O=C(CCn1c(=S)oc2ccccc21)N1CCN(c2ccc(F)cc2)CC1	x	-26%	x	-11%	x	-8%	x	1%

# The results go on:
mol	Cruzain Triton	StopGo reporter	Cruzain noTriton	RE007 growth inh	MARV entry inh	SARS PLP yeast	Lassa entry inh	NS1 function inh
CCC(=O)Nc1ccc(Br)c(Cl)c1	-1.2%	-11%	-2%	u	u	-31%	2%	9%
Cc1ccc(SCC(=O)NC2CC2)cc1	x	18%	x	-5%	x	-5%	x	4%
COc1cccc(CNC(=O)CCC2CCCN(C(=O)c3ccc(C)nc3)C2)c1 (stereo not given)	x	14%	x	8%	6%[46.1 µM]	0%	-1%[46.1 µM]	-1%
CC(C)OCC(O)CN1CCNCC1 (stereo not given)	3.0%	11%	9%	4%	22%	3%	7%	2%
COc1ccc2nc(/C(C#N)=C\c3ccc(Oc4ccc([N+](=O)[O-])cn4)cc3)[nH]c2c1	-5.8%	-1%	25µM*	-17%	u	7%	3%	u
Cc1cccc(N/C=C(\[N+](=O)[O-])S(=O)(=O)c2ccccc2)c1C	x	16%	x	18%	-4%[46.1 µM]	1%	0%[46.1 µM]	x
O=C1S/C(=C\c2ccc(Cl)cc2)C(=O)N1CCn1cnnn1	x	0%	x	-8%	x	0%	x	-5%
COc1cc(Cl)c(C)cc1Nc1nc2ccccc2nc1NS(=O)(=O)c1ccccc1	-1.9%	44%[activator]	-6%	x	u	x	9%[46.1 µM]	x
